# Assay outcomes deposited in PubChem BioAssay by Southern Research Institute.
# Mtb growth: Mycobacterium tuberculosis H37Rv growth inhibition, putative kinase inhibitor library, confirmatory dose response (AID 2842). one-dose inhibition, % at 10 µg/mL; IC90 in µg/mL for titrated hits. 24,000 compounds, 5.2% hits. M. tuberculosis H37Rv growth inhibition; higher % means a stronger effect; some inactives read as strong as hits;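 active = confirmed in a dose series; about a fifth of its hits are not listed in these tables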;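 also: bacteria incubated one week before Alamar blue readout; 0% = bacteria only wells and 100% = bacteria with high antibiotic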
# An asterisk follows results filed as active. A portion of the library. The share of hits here may be higher or lower than overall.
SMILES,Mtb growth
COc1cccc2c1OC(c1cccnc1)N1N=C(c3cc(C)ccc3O)CC21 (stereo not drawn),-2%
O=C(Nc1nc2ccccc2s1)c1cc(=O)c2ccccc2o1,-14%
CCC(SCC(=O)OC)C(=O)Nc1nnc(-c2cccc([N+](=O)[O-])c2)s1 (stereo not drawn),18%
Cn1c(=O)c2c(nc(SCc3ccc(F)cc3)n2Cc2ccccc2)n(C)c1=O,2%
O=C(CSc1nc2[nH]ncc2c(=O)[nH]1)NCCc1ccccc1,-2%
O=C(NCc1ccccc1Cl)NC1CC(=O)N(c2cccc(F)c2)C1 (stereo not drawn),16%
CC(=O)N1CCc2cc(NC(=O)CSc3nnc4sc5ccccc5n34)ccc21,0%
Cc1ccc(C)c(-c2nnc(NC(=O)CN3C(=O)c4ccccc4C3=O)o2)c1,19%
CC1=C(C(=O)Nc2ccccc2C)C(c2cccs2)n2c(s/c(=C3\C(=O)Nc4ccccc43)c2=O)=N1 (stereo not drawn),-7%
CCc1nnsc1C(=O)Nc1ncc([N+](=O)[O-])s1,17%

# Laid out differently: entries from further up.
canonical_smiles	Mtb growth
O=C(Nc1nc2ccccc2s1)c1cc(=O)c2ccccc2o1	-14%
CC1=C(C(=O)Nc2ccccc2C)C(c2cccs2)n2c(s/c(=C3\C(=O)Nc4ccccc43)c2=O)=N1 (stereo not drawn)	-7%
O=C(CSc1nc2[nH]ncc2c(=O)[nH]1)NCCc1ccccc1	-2%

# Back to the main list; the three compounds before the break are reprinted first.
SMILES,Mtb growth
Cc1ccc(C)c(-c2nnc(NC(=O)CN3C(=O)c4ccccc4C3=O)o2)c1,19%
CC1=C(C(=O)Nc2ccccc2C)C(c2cccs2)n2c(s/c(=C3\C(=O)Nc4ccccc43)c2=O)=N1 (stereo not drawn),-7%
CCc1nnsc1C(=O)Nc1ncc([N+](=O)[O-])s1,17%
O=C(CC(c1ccccc1)c1ccccc1)Nc1c(C(=O)Nc2ccc3c(c2)OCCO3)oc2ccccc12,8%
Nc1nc(SCC(=O)N2CCCc3ccccc32)[nH]c(=O)c1NC(=O)c1ccc(Cl)cc1,-10%
COc1ccc(NC(=O)c2oc3ccccc3c2NC(=O)CCCl)c(OC)c1,-2%
O=C(NCc1ccc2c(c1)OCO2)c1cnc2sccn2c1=O,-8%
NC(=O)c1c(NC(=O)c2ccc([N+](=O)[O-])s2)sc2c1CCCC2,11%
CC(=O)Nc1ccc(S(=O)(=O)NCCc2csc(C)n2)cc1,6%
Cc1cc(C)cc(-n2cc(-c3ccc4c(c3)OCO4)[nH]c2=O)c1,1%
Cc1cccc(NC(=O)CSc2ccc3nnc(CCNC(=O)c4ccc(F)cc4)n3n2)c1,2%
Cc1ccc(C)c2[nH]c(=O)c(CCNC(=O)c3cc(Cl)ccc3Cl)cc12,0%
COc1ccc(Nc2nc(Nc3cccc(OC)c3)nc3nccnc23)cc1,9.9µg/mL*
O=C(OCn1nnc2ccccc2c1=O)c1ccccc1Cl,23%
Cc1ccc(NC(=O)CSc2nnc3ccc(-c4cccnc4)nn23)cc1F,6%
CCCCc1ccc2nc(Nc3nc4c(OC)cccc4s3)sc2c1,11%
COC(=O)c1ccc2nc(NC(=O)c3ccc(-c4ccccc4)cc3)sc2c1,1%
CCOC(=O)c1ccc(NC(=O)CSc2nnc3cc(C)c4ccccc4n23)cc1,-2%
CCCCn1c(=O)[nH]c2ccccc21,7%
Cc1cccc(NC(=O)CSc2nnc3ccc(-c4ccccn4)nn23)c1,-13%
COc1ccc2nc(-c3ccc(F)c(NC(=O)Cc4ccc(F)cc4)c3)cn2n1,-2%
CCOc1ccccc1NC(=O)c1oc2ccccc2c1NC(=O)CC(C)C,-1%
Cn1c(=O)[nH]c(=O)c2c1nc(NCCO)n2Cc1ccc(F)cc1,-2%

# Look-ups from above:
# Under Mtb growth, CCOC(=O)c1ccc(NC(=O)CSc2nnc3cc(C)c4ccccc4n23)cc1 has -2%
# Under Mtb growth, CCCCc1ccc2nc(Nc3nc4c(OC)cccc4s3)sc2c1 has 11%
# Under Mtb growth, COC(=O)c1ccc2nc(NC(=O)c3ccc(-c4ccccc4)cc3)sc2c1 has 1%
# Under Mtb growth, CCCCn1c(=O)[nH]c2ccccc21 has 7%
# Under Mtb growth, Cc1cccc(NC(=O)CSc2nnc3ccc(-c4ccccn4)nn23)c1 has -13%
# Under Mtb growth, COc1ccc2nc(-c3ccc(F)c(NC(=O)Cc4ccc(F)cc4)c3)cn2n1 has -2%

# (list continues)
SMILES,Mtb growth
COc1ccc(NC(=O)c2oc3ccccc3c2NC(=O)CC(c2ccccc2)c2ccccc2)c(OC)c1,11%
O=C(CSc1nnc2ccc(-c3cccc([N+](=O)[O-])c3)nn12)Nc1ccccc1F,2%
COc1cccc2sc(N(CCCn3ccnc3)C(=O)c3ccc4c(c3)OCCO4)nc12,6.6µg/mL*
CCOC(=O)c1cccc(N/C=C(\C#N)c2nc3ccccc3[nH]2)c1,-3%
O=C(CSc1ccc2nnc(-c3cccc(F)c3)n2n1)N1CCc2ccccc21,-2%
O=C(CSc1ncc(S(=O)(=O)c2ccccc2)c(=O)[nH]1)Nc1cccc(F)c1,2%
Nc1nc(SCC(=O)N2CCc3ccccc32)[nH]c(=O)c1NC(=O)c1ccc(F)c(F)c1,-16%
O=c1[nH]nc(S(=O)(=O)Nc2nccs2)c(=O)[nH]1,2%
NS(=O)(=O)c1ccc2nc(NC(=O)CN3C(=O)c4ccccc4C3=O)sc2c1,2%
O=C(Nc1nc2c(s1)CCCC2)C1COc2ccccc2O1 (stereo not drawn),13%
CCc1cccc(OCC(O)Cn2c(N3CCN(C)CC3)nc3c2c(=O)[nH]c(=O)n3C)c1 (stereo not drawn),5%
COc1ccc(/C=C/C(=O)Nc2cc(C)ccc2C)c(OC)c1,4%
O=c1c(-c2ccccc2F)coc2cc(O)cc(O)c12,78%
Cn1c(=O)c2c(nc(N3CCN(c4ccccc4)CC3)n2CCSc2nc3ccccc3o2)n(C)c1=O,6%
Cc1ccn2c(-c3csc(Nc4ccc(N)cc4)n3)c(C)nc2c1,48%
CCOC(=O)c1nn(-c2cccc(F)c2)c(=O)c2c(NC(=O)c3ccc(S(=O)(=O)N(C)C)cc3)scc12,3%
Nc1ncnc(Nc2ccc([N+](=O)[O-])cc2)c1[N+](=O)[O-],12%
COc1ccc(C(=O)Nc2nc3ccc4sc(C)nc4c3s2)cc1,-8%
O=C(N=Nc1cc(NS(=O)(=O)c2ccccc2)c2ccccc2c1O)c1cccc([N+](=O)[O-])c1,12%
O=C1CCCC2=C1C(c1ccc(Cl)cc1)c1c([nH]c(=O)[nH]c1=O)N2 (stereo not drawn),-1%
COc1ccc2nc(Nc3nc4ccc(NC(C)=O)cc4s3)sc2c1,50%
COc1ccc(-c2nc(SCc3cccnc3)c3c(=O)n(C)c(=O)n(C)c3n2)cc1,-15%
COc1cc(OC)cc(C(=O)Nc2nnc(-c3ccccc3Cl)s2)c1,2%
CCc1cc2c(=O)c(Oc3ccccc3F)c(C)oc2cc1OCC(=O)O,-20%
CCOC(=O)c1oc2ccccc2c1NC(=O)c1cccc([N+](=O)[O-])c1C,5%
Cc1cn2c(nc3c2c(=O)n(Cc2c(F)cccc2Cl)c(=O)n3C)o1,-19%
CC(=O)Cn1c(=O)c2c(nc3n(-c4cccc(C)c4C)c(C)c(C)n23)n(C)c1=O,55%
CC(=O)c1ccc(N2C(=O)/C(=C3/C(=O)N(C(C)=O)c4ccccc43)SC2=S)cc1,-3%
Fc1cccc2sc(N3CCN(c4nc5ccccc5s4)CC3)nc12,9%
O=C(Nc1nnc(-c2ccc(Cl)s2)o1)c1nc2ccccc2s1,4.8µg/mL*
CC(=O)c1ccc(C(=O)Nc2nc(-c3ccc4c(c3)CCCC4)cs2)cc1,6%
Cn1c(=O)[nH]c(=O)c2c1nc(SCCN1CCCCC1)n2CCc1ccccc1,0%
COc1ccc(S(=O)(=O)N2CCC(C(=O)Nc3nnc(-c4cccs4)o3)CC2)cc1,9%
O=C(CNc1ccccc1)Nc1ncc(Cc2cc(C(F)(F)F)ccc2Cl)s1,5%
O=C(CN1C(=O)/C(=C\c2cccs2)SC1=S)Nc1nc2ccccc2s1,-6%
CSc1cccc(-c2nnc(NC(=O)/C=C/c3cccs3)o2)c1,4.5µg/mL*
COC(=O)CCN(C(=O)c1ccc([N+](=O)[O-])cc1)c1ccccn1,-3%
Cc1ccc(S(=O)(=O)Nc2cccc(C(=O)Nc3nccs3)c2)cc1,-3%
O=C(Nc1ccc2c(c1)C(=O)NC2=O)C1=COCCO1,-2%
CC(C)Cn1c(=O)c2sccc2n2c(CCCC(=O)NCc3ccc4c(c3)OCO4)nnc12,-4%
CCc1ccc(S(=O)(=O)NNC(=O)c2ccccc2)cc1,7%
Cn1ncc2c(N3CCN(c4ccc(Cl)c(Cl)c4)CC3)ncnc21,2%
CCOC(=O)N1CCc2c(sc(NC(=O)c3ccc(Oc4ccccc4)cc3)c2C#N)C1,2%
CCCCC(=O)Nc1c(C(=O)Nc2ccc(C)cc2)oc2ccccc12,13%
O=C(Nc1ccc2sccc2c1)c1ccc(Cc2ccccc2)cc1,52%
CC1=C(C(=O)Nc2ccccc2F)C(c2ccc(N(C)C)cc2)NC(=O)N1 (stereo not drawn),-3%
O=C(O)c1ccc2c(c1)C(=O)N(CCCn1ccnc1)C2=O,-8%
O=C(Nc1c(C(=O)Nc2ccccc2)oc2ccccc12)c1ccccc1F,0%
COc1ccc2nc(-c3cccc(NC(=O)c4ccc(C(F)(F)F)cc4)c3)cn2n1,5%
Cn1c(=O)c2c(nc(N3CCN(c4ccccc4)CC3)n2CCSc2nc3ccccc3s2)n(C)c1=O,4%
# Additional entries
SMILES,Mtb growth
Cn1c(=O)[nH]c(=O)c2c1nc(N1CCCCCC1)n2CC(=O)c1ccccc1,-2%
C#CCn1c(=NC(=O)c2cc(OC)cc(OC)c2)sc2cc(S(N)(=O)=O)ccc21,77%
Cc1ccccc1OCC(=O)Nc1c(C(=O)Nc2ccc([N+](=O)[O-])cc2)oc2ccccc12,5%
CCC(Sc1nncn1C)C(=O)Nc1nnc(-c2ccccc2C)s1 (stereo not drawn),3%
CCOc1ccc(NC(=O)c2oc3ccccc3c2NC(=O)CCc2ccccc2)cc1,3%
Cc1ccc(OCC(=O)NC2CC(=O)N(c3ccc(F)cc3)C2)cc1 (stereo not drawn),-1%
CCOC(=O)Cc1c(-c2ccccc2)c2cc(C)ccc2[nH]c1=O,-7%
CC(C)c1nnc(NC(=O)c2ccc(Br)cc2)s1,4%
Cn1c(=O)c2c(SCC(=O)c3ccccc3)nc(-c3cccs3)nc2n(C)c1=O,11%
CCOC(=O)c1ccc(NC(=O)CSc2ncnc3c2cnn3-c2ccc(C)cc2C)cc1,-9%
COc1cc(/C=N/Nc2ncc(C)c(=O)[nH]2)cc(OC)c1O,-1%
Cc1cccc(-n2ncc3c(=O)n(CC(=O)Nc4ccc([N+](=O)[O-])cc4)cnc32)c1C,3%
O=C(O)c1cc(-n2cccc2)ccn1,-3%
CCOc1ccccc1/C=N/Nc1ncnc2nc[nH]c12,11%
COc1ccccc1CNC(=O)c1cnc2scc(C)n2c1=O,-12%
COc1ccc(S(=O)(=O)Nc2ccc3c(c2)C(=O)Nc2ccccc2O3)cc1C,9%
Cc1cc(C)c(C(=O)Nc2ccc(S(=O)(=O)Nc3ccccn3)cc2)c(C)c1,4%
CCc1ccccc1NC(=O)c1sc2nc3c(c(-c4cccs4)c2c1N)CCC3,8%
CN1CCN(c2nc3c(c(=O)[nH]c(=O)n3C)n2CCSc2ncccn2)CC1,-4%
Cn1c(=O)[nH]c(=O)c2c1nc(N1CCCCC1)n2CCSc1ncccn1,-3%
COc1cc(/C=N\Nc2nc(C)cc(=O)[nH]2)cc(Br)c1O,7%
CCOc1ccc(-c2nnc3c4cc5c(cc4n(Cc4ccc(C)cc4)cc2-3)OCO5)cc1,6%
CCOC(=O)c1oc2ccccc2c1NC(=O)COC,5%
COCCn1c(SC(C(C)=O)C(C)=O)nnc1-c1c[nH]c2ccccc12,2%
CC(Sc1ncc(S(=O)(=O)c2ccc(Cl)cc2)c(=O)[nH]1)C(=O)Nc1ccccc1 (stereo not drawn),-17%
Cc1ccc(Cn2c(SCc3ccccc3)nc3c2c(=O)[nH]c(=O)n3C)cc1,9%
Cc1cccc(NC(=O)CSc2nc3c(c(=O)n2-c2ccc(F)cc2)SCC3)c1C,-4%
O=c1[nH]nc(-c2ccccc2)o1,3%
O=C(O)c1cc(-c2ccc(F)cc2)nc2ccccc12,-4%
CC(=O)N1CCc2c(sc(NC(=O)c3ccc(C)c(C)c3)c2C(N)=O)C1,3.4µg/mL*
COc1ccc(C(=O)c2cn(Cc3ccc(F)cc3)c3c(F)cc(F)cc3c2=O)cc1,7%
CCc1ccc(N(Cc2cc(=O)n3ccccc3n2)C2=NC3CS(=O)(=O)CC3S2)cc1 (stereo not drawn),-13%
CC1=C(C(=O)Nc2ccccc2Cl)C(c2ccc(Br)cc2)NC(=O)N1 (stereo not drawn),32%
O=S(=O)(Nc1cc(Cl)c(O)c2ccccc12)c1ccc(F)cc1,6.3µg/mL*
Cc1ccc(C)c(-c2nnc(NC(=O)c3c(F)cccc3F)o2)c1,5.7µg/mL*
Cc1cccc(-n2nnc3c(=O)n(CC(=O)N4CCN(c5ccccc5)CC4)cnc32)c1,0%
O=C(CCc1ccccc1)Nc1ccc2c(c1)C(=O)NC2=O,-8%
O=C(Nc1ccc(F)c(F)c1)c1oc2ccccc2c1NC(=O)c1cc2ccccc2oc1=O,-4%
CC(C)Oc1ccc(/C(O)=C2\C(=O)C(=O)N(CCCn3ccnc3)C2c2ccc(Cl)cc2)cc1 (stereo not drawn),-21%
C=CCSc1nc2c(c(=O)[nH]1)C(c1cccc(OC)c1)C1=C(CCCC1=O)N2 (stereo not drawn),-4%
CC(C)(C)c1ccc(C(=O)NCc2nnc(SCC(=O)N3CCc4ccccc43)o2)cc1,-2%
CCOCC(=O)Nc1c(C(=O)Nc2ccc(OC)c(OC)c2)oc2ccccc12,-4%

# An excerpt from above in order of molar mass, largest number first.
SMILES,Mtb growth
CCOC(=O)c1ccc(NC(=O)CSc2nnc3cc(C)c4ccccc4n23)cc1,-2%
COc1ccc2nc(-c3ccc(F)c(NC(=O)Cc4ccc(F)cc4)c3)cn2n1,-2%
Cc1ccc(C)c2[nH]c(=O)c(CCNC(=O)c3cc(Cl)ccc3Cl)cc12,0%
